Cruzain noTriton: cruzain (T. cruzi) inhibition without detergent. hit rate 2.3% among 200,000. P25779. Potency, µM, inactives show max response, negative = inhibition, actives largely listed as inhibitors. purified cruzain, Z-FR-AMC fluorescence, no detergent. AID 1476; active = well fitted curve in the direction sought with a large enough effect; inconclusive = small, poorly fitted or top-dose-only effect, or another doubt; inactive = no such curve, though single readings can be large; an effect the other way counts as inactive or inconclusive;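 also: plate controls were enzyme without inhibitor for no effect and buffer without enzyme for full effect; nearly all actives have a fitted effect of over 40% in size; top concentration of the series not given in the record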
Target sequence (P25779 123-467 limits assumed): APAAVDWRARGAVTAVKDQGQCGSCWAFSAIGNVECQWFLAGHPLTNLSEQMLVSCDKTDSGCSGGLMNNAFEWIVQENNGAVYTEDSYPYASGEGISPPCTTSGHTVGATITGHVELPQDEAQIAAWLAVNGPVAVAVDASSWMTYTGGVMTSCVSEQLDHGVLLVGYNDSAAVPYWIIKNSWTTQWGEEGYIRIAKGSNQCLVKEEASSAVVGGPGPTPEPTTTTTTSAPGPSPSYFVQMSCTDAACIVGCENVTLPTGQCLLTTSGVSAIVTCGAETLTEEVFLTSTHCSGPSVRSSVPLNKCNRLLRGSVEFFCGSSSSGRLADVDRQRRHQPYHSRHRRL
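Purified cruzain at 1.5 nM, pre-incubated 15 min with compound at room temperature in 100 mM sodium acetate pH 5.5, 5 mM DTT, 0.00005% Triton X-100. Reaction started with 2 uM Z-FR-AMC; AMC fluorescence increase over 60 s gives rate.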
NS1 inh: influenza NS1 inhibition; S. cerevisiae slowed by influenza A NS1, growth recovery by OD600; Potency, µM (highest dose often 46.1 µM), for inactives: top-dose activity, positive = more growth; hit rate 0.4% among 270,000; AID 2326; also: actives are rising curves; nearly all actives have a fitted effect of over 50% in size
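Read-out: OD600 growth recovery of NS1-expressing budding yeast. Cells grown overnight at 30C in -URA glucose medium, washed, resuspended and diluted 1:100 in 2% galactose assay medium, pH 6.0. Same strain lacking NS1 served as positive control.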
MARV entry inh: blocks Marburg virus binding to or entry into cells; Potency, µM (doses to about 37.8 µM), for the others: at the highest dose activity change, negative = inhibition, actives largely listed as inhibitors; Marburg virus pseudotyped entry inhibition, cell reporter; control for the full effect not named in the record; about a third of the inactives were read at about 46 µM; hit rate 1.8% among 300,000; active = well fitted inhibition curve with a large enough effect; inconclusive = small, poorly fitted or top-dose-only effect, or effect the other way; inactive = flat fitted curve, though single readings scatter; tested in HEK293 cells; about a fifth of its hits are not listed in these tables; also: % is scaled to controls: 0 for no effect and ±100 for the full control effect; luciferase read-out
LASV entry inh: Lassa virus entry inhibition; Lassa virus pseudotype entry inhibition, cell reporter; control for the full effect not named in the record; Potency, µM (titrated, usually from 37.9 µM), without a hit: at the top dose activity change, negative = inhibition, hits mostly inhibitors; hit rate 1.2% among 300,000; AID 540256; active means well fitted inhibition curve with a large enough effect; inconclusive means small, poorly fitted or top-dose-only effect, or effect the other way; inactive means flat fitted curve, though single readings scatter; tested in HEK293 cells; also: % is scaled to controls: 0 for no effect and ±100 for the full control effect; nearly all actives have a fitted effect of over 50% in size; luciferase read-out
Cruzain inh Det: blocks cruzain activity in presence of Triton detergent; P25779; purified cruzain, Z-FR-AMC fluorescence, 0.01% Triton; Potency, µM, without a hit: max response, negative = inhibition, hits mostly inhibitors; hit rate 0.43% among 200,000; AID 1478; active = well fitted curve in the direction sought with a large enough effect; inconclusive = small, poorly fitted or top-dose-only effect, or another doubt; inactive = no such curve, though single readings can be large; an effect the other way counts as inactive or inconclusive;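 also: plate controls were neutral wells for no effect and buffer without enzyme for full effect; nearly all actives have a fitted effect of over 40% in size; top concentration of the series not given in the record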
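Compounds were screened in titration against cruzain (1.5 nM) with 0.01% Triton X-100 to counter colloidal aggregation. Activity was the AMC fluorescence increase over 60 s after adding 2 uM Z-FR-AMC at pH 5.5.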
SARS PLP yeast: blocks SARS-CoV papain-like protease in a yeast assay; S. cerevisiae expressing SARS-CoV PLpro, growth rescue; control for the full effect not named in the record; Potency, µM (top dose mostly 32.9 µM), without a hit: at the top dose activity, positive = growth rescue; hit rate 0.19% among 330,000; AID 485353; also: 0% is about no effect; nearly all actives have a fitted effect of over 55% in size; growth read by luminescence after 48 h
2A StopGo: FMDV 2A StopGo reporter, luciferase signal; human cells with a luciferase reporter of 2A StopGo recoding; control for the full effect not named in the record; Potency, µM (highest dose often 57.9 µM), for the others: top-dose signal change, negative = less light; hit rate 1.2% among 410,000; active = well fitted falling curve with a large enough effect; inconclusive = small, poorly fitted or top-dose-only effect; inactive = no such curve, though single readings can be large or run the other way; tested in HEK293T cells; also: % is scaled to controls: 0 for no effect and ±100 for the full control effect; nearly all actives have a fitted effect of over 45% in size; luciferase light after 4 h
RE007 growth inh: less growth of the S. pombe RE007 Vpr strain. hit rate 0.21% among 360,000. Potency, µM (doses to about 92.2 µM), inactives show at the highest dose activity change, negative = less growth. AID 651644. S. pombe RE007 Vpr strain, BacTiter-Glo ATP luminescence, 24 h; control for the full effect not named in the record; active = well fitted falling curve with a large enough effect; inconclusive = small, poorly fitted or top-dose-only effect; inactive = no such curve, though single readings can be large or run the other way;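 also: % is scaled to controls: 0 for no effect and ±100 for the full control effect; nearly all actives have a fitted effect of over 50% in size; the assay follows cell death caused by Vpr and the record does not say whether a fall means rescue or toxicity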
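Fission yeast strain RE007, carrying one chromosomally integrated HIV-1 vpr copy, was seeded at OD 0.01 in PMG+AL medium with 23 nL pinned compound. After 24 h at 30 °C and 99% humidity, viability was read by BacTiter-Glo luminescence.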
An asterisk follows results filed as active; ? = inconclusive; · = no result given; [ ] = dose if it differs, or a comment. Unless noted, calls follow the shape of the dose curve; as a rule, active means well fitted rising curve with a large enough effect; inconclusive means small, poorly fitted or top-dose-only effect; inactive means no such curve, though single readings can be large or run the other way. Potency is read from the fitted curve at half-maximal effect. An unsorted share of the library, and some 4.8% of all compounds hit somewhere here.

molecule | Cruzain noTriton | NS1 inh | MARV entry inh | LASV entry inh | Cruzain inh Det | SARS PLP yeast | 2A StopGo | RE007 growth inh
CCCNC(=O)N1CCN(S(=O)(=O)c2ccc(C)c(C)c2)CC1 | · | -11% | 17% | -1% | · | · | 1% | 9%
NS(=O)(=O)c1ccc(N2CCOCC2)c(C(=O)NCc2ccc3c(c2)OCO3)c1 | · | · | -9% | -25% | · | -1% | 16% | 16%
Cc1c(C(=O)N/N=C/C(C)C)[nH]c2c([N+](=O)[O-])cccc12 | 4% | 9% | ? | -15%[46.1 µM] | -3.9% | -4% | 4% | -14%
CN(C)S(=O)(=O)c1ccc(Cl)c(NC(=O)COC(=O)CCC(=O)c2cccs2)c1 | · | -3% | · | · | · | 1% | -13% | 11%
COc1cc(NC(=S)NCCCO)c(OC)cc1Cl | · | 8% | · | · | · | -1% | 6% | 4%
Cc1ccc(S(=O)(=O)Nc2nc3ccccc3nc2NCc2ccco2)cc1C | ? | -41% | ? | 4% | -11% | -2% | 0% | -6%
CCN1C(=O)CSC1=Nc1ccc(OC)cc1 | · | -18% | ? | 4% | · | 3% | -1% | 1%
O=C(CCCCn1c(=O)[nH]c2ccccc2c1=O)NCc1ccc2c(c1)OCO2 | 9% | 7% | ? | -9% | -0.4% | 5% | -6% | 15%
CCC(C)c1ccc(NC(=O)Nc2cccnc2)cc1 (stereo not given) | · | -52% | · | · | · | 1% | 42%[activator] | -8%
CC(=O)Nc1ccc(S(=O)(=O)NCC2CCC(C(=O)NCCCN(C)Cc3ccccc3)CC2)cc1 (stereo not given) | · | -4% | 28%[46.1 µM] | ? | · | 0% | 48%[activator] | -15%
CCOC(=O)c1cnn(-c2ncnc3c2cnn3C)c1N | · | -1% | ? | ? | · | -1% | 40%[activator] | -15%
C/C(=N\NC(=O)C(O)c1ccccc1)c1ccc(Cl)cc1 (stereo not given) | · | 6% | 18%[46.1 µM] | -14%[46.1 µM] | · | 1% | 15% | 4%
COc1ccc(CN2CC(=O)N(c3ccccc3C)C2=S)cc1OC | · | · | -32%[46.1 µM] | ? | · | 1% | ? | 1%
CN(C)c1ccc(-c2nc(-c3ccco3)no2)cc1[N+](=O)[O-] | ? | · | -19%[46.1 µM] | -1%[46.1 µM] | -2.5% | · | -45% | ·
COc1ccccc1-c1cc(C(F)(F)F)nc(N2CCOCC2)n1 | 8% | -45% | ? | -2% | -4.5% | -12% | ? | ?
Cn1cc(Cl)c(C(=O)Nc2cccc(Cl)c2Cl)n1 | -4% | -3% | 5% | -2% | 2.4% | 15% | · | -9%
O=C1OC(c2ccccc2)=N/C1=C/c1cccc(OC(=O)c2cccs2)c1 | · | · | -12%[46.1 µM] | 20% | · | · | -29% | -28%
CCn1nnc2cc(C(=O)Nc3ccc(OC)cc3)ccc21 | -8% | · | · | 14%[46.1 µM] | 2.7% | · | 45%[activator] | ·
CCOc1ccc(NC(=O)c2cc3cc4cc(OC)ccc4nc3s2)cc1 | 1% | · | -18%[46.1 µM] | 23%[46.1 µM] | 0.5% | · | -19% | ·
O=C(Cc1ccc(S(=O)(=O)N2CCOCC2)s1)NCCc1ccc(F)cc1 | · | · | -18% | -1% | · | 9% | 29% | -13%
O=C(CCCN=C1NS(=O)(=O)c2ccccc21)OCC(=O)N1CCc2ccccc21 | -11% | 0% | -8% | 2% | -1.2% | 0% | -24% | -16%
COc1cccc(NC(=S)NCCCN2CCOCC2)c1 | 9% | 14% | -5% | 9% | -2.5% | 14% | -16% | -10%
CC(=O)c1ccc(NC(=O)CSC(=S)N2CCCC2)cc1 | · | -4% | 12% | 11% | · | -1% | 25% | ?
C(#CCN1CCOCC1)CCCN1CCOCC1 | · | · | 1%[46.1 µM] | -15%[46.1 µM] | · | · | 5% | -6%
COc1ccc(Cl)cc1NC(=O)Cn1c(=O)n2nc(-c3ccccc3)nc2c2ccccc21 | -4% | · | ? | 9%[46.1 µM] | -0.2% | · | 6% | ·
COc1ccc(S(=O)(=O)N(C)CC(=O)NCc2cccnc2)cc1C | -12% | -4% | 0%[46.1 µM] | 1% | 4.3% | -1% | -14% | 17%
Cc1nn(CCCC(=O)NCCc2ccccc2)c(=O)c2nn(-c3ccccc3)c(C)c12 | · | -18% | · | · | · | 3% | 0% | -7%
CC(CNc1nc2ccc(Cl)cc2n2cnnc12)c1ccccc1 (stereo not given) | · | -1% | · | · | · | 1% | -16% | -15%
Cc1cc(Br)ccc1NC(=O)c1sc2nc3n(c(=O)c2c1C)CCCC3 | -12% | · | · | 0%[46.1 µM] | -5.8% | · | 21% | ·
CCOC(=O)c1c(C)[nH]c(C)c1C(=O)COc1ncnc2cc([N+](=O)[O-])ccc12 | · | · | ? | ? | · | 0% | -23% | -21%
CCN(Cc1ccccc1)S(=O)(=O)c1ccc(-c2coc(C)n2)cc1 | 21% | · | · | -3%[46.1 µM] | -15% | · | -15% | ·
Cc1c(C(=O)O)c(=O)n(-c2ccccc2)n1-c1ccccc1 | · | 2% | · | · | · | 0% | -7% | -2%
COc1ccc(OC)c(/C=N/Nc2cc(C)nc(N3CCOCC3)n2)c1 | · | -7% | -2%[46.1 µM] | 1%[46.1 µM] | · | 0% | -23% | 5%
COC(=O)CCNC(=O)N1CCN(c2nnc(C)c3c(C)n(-c4ccccc4)nc23)CC1 | -4% | · | · | -2%[46.1 µM] | -2.5% | · | -26% | ·
COc1cccc(-c2nc(CS(=O)(=O)CC(=O)NCCCN3CCOCC3)c(C)o2)c1 | · | 3% | 2%[46.1 µM] | 1%[46.1 µM] | · | 3% | 41%[activator] | 16%
CCN(CC)CCCNC(=O)CCc1c(C)nc2c(c1C)c(=O)n(C)c(=O)n2C | -10% | · | 2%[46.1 µM] | 5%[46.1 µM] | -0.5% | · | -14% | ·
COc1ccc(CN(C)C(=O)C(Cc2ccccc2)NC(=O)c2ccccc2)cc1F (stereo not given) | · | · | ? | ? | · | 5% | -10% | -6%
Cn1c(N)c(C(=O)COC(=O)c2ccc3c(c2)C(=O)N(c2ccc(Cl)cc2)C3=O)c(=O)n(C)c1=O | · | 5% | 2% | -5% | · | 0% | -12% | 2%
CCOCCc1nnc(NC(=O)C2CC(=O)N(c3ccc(OCC)cc3)C2)s1 (stereo not given) | · | 8% | -3% | 0% | · | -1% | -8% | 3%
CCOc1ccc(N(CC(=O)N2CCOCC2)S(=O)(=O)c2ccc(SC)cc2)cc1 | · | 2% | -10%[46.1 µM] | · | · | -9% | 29% | 7%
CCc1ccc(NC(=O)CCc2c(C)nn(-c3ccc(N4CCCCC4)nn3)c2C)cc1 | · | -1% | · | · | · | -31% | -11% | -3%
CCc1cccc(C)c1NC(=O)COn1nnc2ccc(C(F)(F)F)cc21 | 3% | 1% | 3% | 0% | -4.1% | 11% | -28% | -2%
Cc1ccc(C)c(N2C(=O)N(C)c3ccccc3S2(=O)=O)c1 | 7% | · | · | 7%[46.1 µM] | 0.0% | · | 0% | ·
COc1ccccc1NC(=O)NCCCN1CCN(c2cccc(Cl)c2)CC1 | -4% | -11% | ? | -9% | -1.9% | 15% | -28% | -18%
CC(=O)N1c2ccccc2CC1C(=O)NCc1cccc(Cl)c1 (stereo not given) | 6% | · | ? | ? | -1.8% | · | 9% | ·
CCOC(=O)CCC(=O)Nc1ccc(S(=O)(=O)N2CCCC2)cc1 | -7% | -4% | 18% | 7% | 4.4% | 2% | · | 7%
Cc1[nH]c(=O)nc(NN=Cc2ccc(Cl)cc2)c1C(=O)Nc1ccc(Cl)cc1 | · | · | -19% | 0% | · | · | -9% | 4%
O=C1CCc2cc(S(=O)(=O)N3CCC(C(=O)NC4CCCCCCC4)CC3)ccc2N1 | -1% | -10% | 0% | · | 8.6% | -6% | ? | 2%
CC(=O)c1ccc(C(=O)N2CCCC(N3CCN(c4ccc(F)cc4)CC3)C2)s1 (stereo not given) | · | -65% | -20% | ? | · | ? | -22% | 5%
CC(=O)Nc1ccc(NC(=O)C(C)OC(=O)C2CCN(S(=O)(=O)c3cccs3)CC2)cc1 (stereo not given) | · | 1% | 2%[46.1 µM] | -1% | · | 0% | -10% | -2%
CCOc1ccccc1-c1nc(CN2CCC(C(=O)N3CCOCC3)CC2)c(C)o1 | · | 23% | -1% | 2% | · | 3% | 1% | -1%
Cc1ccc(-n2c(-c3cccs3)nc3ccccc3c2=O)cc1 | 0% | 3% | -1% | -5% | -5.8% | ? | 0% | -14%
Cc1ccc(C)n1-c1cccc(N)c1 | -5% | 14% | 0% | · | 1.7% | -1% | · | ·
O=C(CN1C(=O)c2ccccc2S1(=O)=O)c1ccc(F)cc1 | · | -31% | · | · | · | -4% | -68% | -8%
COCCCNC(=O)c1ccc2c(c1)ncn2-c1ccc(C)cc1C | · | -8% | · | · | · | -2% | -14% | 10%
Cc1ccc(NC(=O)CCN2C(=O)c3ccccc3Sc3ncccc32)c(Cl)c1 | -1% | · | · | 10%[46.1 µM] | -3.0% | · | -4% | ·
CC(=O)CCc1c[nH]c2c(C(=O)O)cccc12 | 2% | ? | -2% | ? | 0.0% | -2% | -2% | -4%
NC(=S)NNC(=O)c1cc(C(F)(F)F)cc(C(F)(F)F)c1 | · | 1% | ? | -14% | · | 2% | -8% | 5%
Nc1ccccc1NC1CCCCC1 | · | · | 3% | 20% | · | 1% | -23% | -5%

Molecules above that have a COOH group:
molecule | Cruzain noTriton | NS1 inh | MARV entry inh | LASV entry inh | Cruzain inh Det | SARS PLP yeast | 2A StopGo | RE007 growth inh
Cc1c(C(=O)O)c(=O)n(-c2ccccc2)n1-c1ccccc1 | · | 2% | · | · | · | 0% | -7% | -2%
CC(=O)CCc1c[nH]c2c(C(=O)O)cccc12 | 2% | ? | -2% | ? | 0.0% | -2% | -2% | -4%

Screening data: PubChem BioAssay, National Center for Advancing Translational Sciences (NCATS)
